Compound activity (PubChem)
RanGTP-Impb inh = inhibitors of RanGTP-importin-beta interaction, primary screen, biochemical, FRET, CFP-Ran, YFP-importin-beta, homogeneous. Ran GTPase (GTP-bound) - importin-beta complex. cell-free CFP-Ran/YFP-importin-beta FRET ratio. inhibition, % (test concentration not listed). actives 1.1% (n = 300,000);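 active = most replicates above 15%; inconclusive = exactly half above 15%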;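 note: 0% = DMSO wells and 100% = Ran loaded with GDP instead of GTP; wells of about 40 µL received 100 nL stock; the first replicate is given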
AF4-AF9 inh = inhibitors of AF4 peptide binding to AF9, primary screen, biochemical, AlphaScreen, biotin-AF4 peptide, FLAG-AF9, single point; inhibition, % at 10 µM; AID 651704, 2012; actives 0.47% (n = 350,000); Protein AF-9 (Homo sapiens), P42568;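 active = every replicate reaching a set inhibition limit, whatever the replicate mean, cut at about 25% in these data; inconclusive = mean inhibition reaches that limit but some replicates miss it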;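 note: 0% = plate neutral control median and 100% = total signal loss; the record names both 10 and 1 µM as test concentration; the first replicate is given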
Target sequence (P42568 whole entry, looked up): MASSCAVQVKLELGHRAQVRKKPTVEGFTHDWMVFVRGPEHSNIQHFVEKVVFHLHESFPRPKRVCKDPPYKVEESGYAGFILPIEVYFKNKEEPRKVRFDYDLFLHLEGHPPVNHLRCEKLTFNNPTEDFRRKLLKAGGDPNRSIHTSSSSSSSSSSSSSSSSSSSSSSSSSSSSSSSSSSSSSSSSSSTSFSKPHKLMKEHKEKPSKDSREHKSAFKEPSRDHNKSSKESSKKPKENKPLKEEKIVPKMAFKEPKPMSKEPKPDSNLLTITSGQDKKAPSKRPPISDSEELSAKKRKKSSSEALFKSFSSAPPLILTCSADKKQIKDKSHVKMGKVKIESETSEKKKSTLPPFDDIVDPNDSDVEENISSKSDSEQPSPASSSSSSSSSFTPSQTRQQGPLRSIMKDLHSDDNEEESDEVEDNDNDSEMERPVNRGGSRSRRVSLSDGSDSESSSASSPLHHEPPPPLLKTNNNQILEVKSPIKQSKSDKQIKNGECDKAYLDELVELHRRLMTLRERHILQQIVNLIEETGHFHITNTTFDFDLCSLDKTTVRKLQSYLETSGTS
LANA-H2B inh = blockers of LANA interaction with H2A/H2B – biochemical, FP readout, HTS, primary screen | Protein LANA1 (Human herpesvirus 8 type P (isolate GK18)), Q9QR71 | cell-free LANA-H2A/H2B peptide, fluorescence polarization | inhibition, % (concentration not given with the values) | actives 0.6% (n = 320,000) | AID 2629, 2010; in the data active = inhibition mostly above about 10%, no sharp cut-off; inactive = mostly below about 6.7%;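 note: stock transfer was 7.5 nL into about 10 µL; 0% = median of vehicle wells and 100% = median of positive control wells; one replicate is shown; the record names a cut of 25% in any replicate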
Beta cell apopt = inhibitors of cytokine-induced beta cell apoptosis, primary screen, luminescence; INS-1E cytokine-induced death, ATP luminescence, 48 h; percent of positive-control rescue, neutral wells zero; protection from apoptosis, % (concentration not given with the values); actives 0.8% (n = 300,000); AID 435005, 2010;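 active = all replicates at 75% or more, or half of them and the mean; inconclusive = half reach 75% but not the mean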;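 note: 0% = cytokine-treated negative control wells and 100% = positive control rescue; higher means more ATP so stronger rescue from cytokine killing; wells of about 40 µL received 100 nL stock; the first replicate is given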
Calb FLC = C. albicans growth inhibition with fluconazole, primary screen, CaCi-2 strain, Alamar Blue fluorescence | AID 1979, 2009 | growth inhibition, % (concentration not given with the values) | actives 0.57% (n = 300,000) | C. albicans CaCi-2 (fluconazole-resistant clinical isolate) + fluconazole, 48 h;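 active = most replicates above 75%; inconclusive = exactly half above 75%; inactive = most below 75%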;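 note: all wells also contain fluconazole at 8 µg/ml as a sub-toxic cotreatment; 0% = median of DMSO wells and 100% = median of geldanamycin control wells; wells of about 8 µL received 7.5 nL stock; the first replicate is given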
Bfl-1 A1 inh = caspase 3/7 activation in MEF A1-2A-BIM cells, primary screen, A1 inhibitor project, cell-based, luminescence, HTS; actives 0.066% (n = 330,000); Caspase-Glo 3/7 luminescence, 3 h; percent of clofoctol response, vehicle zero; caspase activation, % (test concentration not listed);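 active = over half of replicate activation scores above 10%, or exactly half above 10 with the replicate mean above 10; inconclusive = replicate mean below 10 yet half the replicates above 10; inactive = over half of replicates below 10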;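 note: wells of about 30 µL received 50 nL stock; many hits fall short of the cut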
Vif TR-FRET = inhibitors of Vif binding to APOBEC3G peptide, primary screen, biochemical, TR-FRET, GST-Vif 1-94, biotin-A3G peptide, dose response retest (AID 1117319); Virion infectivity factor (Human immunodeficiency virus type 1 group M subtype B (isolate …; TR-FRET GST-Vif / biotin-A3G peptide binding; higher % means a stronger effect; test concentration not given here; strong numbers were not always called active; inhibition, %; hits with a dose series show IC50 in µM; actives 0.57% (n = 260,000);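 active = above the screen mean plus three standard deviations and confirmed in dose response; inconclusive = results disagree or hit not tested in dose response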;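 note: Vif residues 1-94 fused to GST binding biotinylated APOBEC3G peptide 110-148; 0% = full assay without inhibitor and 100% = GST in place of GST-Vif; retest series ran down from 100 µM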
T cruzi inh = inhibitors of intracellular T. cruzi growth, primary screen, luminescence, NIH3T3 host cells; inhibition, % (no concentration beside the values); actives 1.4% (n = 300,000); T. cruzi beta-gal in NIH3T3, 90 h; AID 1885, 2009;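 active = mean inhibition across valid replicates above about 55%, limit read from the data; inconclusive = mean below that limit but half or more replicates reach it; inactive = mean below it, under half of replicates reach it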;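 note: signal also drops with host cell toxicity which is not excluded here; 0% = plate median of DMSO wells and 100% = zero luminescence signal; higher percent means less beta-gal luminescence so fewer parasites; stock transfer was 50 nL into about 50 µL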
Numbers without * were called inactive; ? = inconclusive; . = no result given; & = joins results of further samples.

SMILES | RanGTP-Impb inh | AF4-AF9 inh | LANA-H2B inh | Beta cell apopt | Calb FLC | Bfl-1 A1 inh | Vif TR-FRET | T cruzi inh
Cc1ccc(C(c2sc3nc(C)nn3c2O)N2CC(C)OC(C)C2)cc1 (stereo not drawn) | -3.5 | . | -4.3 | -4 | -9 | 1.3 | 0% | -2
O=C(Nc1nnc(C2=COCCO2)o1)C1CCCCC1 | 2.8 | -1.2 | 4.8 | -6 | -4 | 0.0 | -4% | -9
O=C(CCN1C(=O)c2ccccc2S1(=O)=O)Nc1ccc(F)c(F)c1F | 4.5 | 2.2 | 1.2 | -2 | 11 | -0.2 | -6% | -1
CCCCNC(=S)Nc1ccc(C(F)(F)F)cc1 | -1.5 | -3.4 | -1.4 | 7 | -30 | -0.1 | 0% | 6
COc1ccc(-c2cc(=O)c3c(OC)c(OC)c(OC)c(OC)c3o2)cc1OC | 0.2 | -14 | -0.6 | -6 | . | -0.4 | 4%&-9% | 6
CC(=O)c1nnn(-c2nc(N)nc(N(c3ccccc3)c3ccccc3)n2)c1C | -4.7 | . | -0.7 | 3 | -24 | -0.7 | 10% | 12
CCN(CC)C(=O)C(C)N(C#N)c1nc(Cl)nc(N(C)C)n1 (stereo not drawn) | 1.1 | 0.6 | 3.2 | -2 | 8 | 0.9 | 3% | -12
Cc1cccc(N2CCN(C(=O)N3CCCCC3)CC2)c1C | 2.3 | 2.1 | 0.9 | 1 | -18 | -0.4 | -2% | 7
CCNC(=S)/N=C(/Nc1ccc(OC)cc1)Nc1nc(C)cc(C)n1 | 8.7 | 1.5 | 0.9 | -2 | -1 | 1.0 | -20% | -12
CCOC(=O)c1c(C)[nH]c(C(=O)OCc2c(C)noc2C)c1C | 3.2 | . | -6.0 | 37 | -6 | -0.5 | -3% | 2
CC(C)(C)NC(=O)CSc1nc(-c2ccccc2)cc(=O)[nH]1 | -0.6 | 0.2 | 4.7 | -5 | 14 | -0.4 | -6% | -7
NC(=O)CSc1nc2cccnc2n1-c1ccc(F)cc1 | -1.0 | 0.0 | 3.2 | -1 | 8 | 0.0 | . | -1
CCCCc1cc2c(s1)CCCC/C2=N/O | ? | -2.1 | -1.0 | -2 | -28 | -0.5 | 4% | 23
COc1cccc(CNC(=O)C(C(=O)NCc2cccc(OC)c2)c2ncc(C(F)(F)F)cc2Cl)c1 | -0.7 | -0.7 | -0.8 | 0 | 7 | 1.3 | 2% | -2
NC(CO)C(O)c1ccc([N+](=O)[O-])cc1 (stereo not drawn) | -1.8 | -2.8 | 3.7 | -5 | 12 | -0.2 | 0% | -22

One compound at a time (already shown).
COc1cccc(CNC(=O)C(C(=O)NCc2cccc(OC)c2)c2ncc(C(F)(F)F)cc2Cl)c1 is listed with RanGTP-Impb inh = -0.7; AF4-AF9 inh = -0.7; LANA-H2B inh = -0.8; Beta cell apopt = 0; Calb FLC = 7; Bfl-1 A1 inh = 1.3; Vif TR-FRET = 2%; T cruzi inh = -2
CCN(CC)C(=O)C(C)N(C#N)c1nc(Cl)nc(N(C)C)n1 (stereo not drawn) is listed with RanGTP-Impb inh = 1.1; AF4-AF9 inh = 0.6; LANA-H2B inh = 3.2; Beta cell apopt = -2; Calb FLC = 8; Bfl-1 A1 inh = 0.9; Vif TR-FRET = 3%; T cruzi inh = -12

The list continues:
SMILES | RanGTP-Impb inh | AF4-AF9 inh | LANA-H2B inh | Beta cell apopt | Calb FLC | Bfl-1 A1 inh | Vif TR-FRET | T cruzi inh
Cc1ccc(OCCOC(=O)CN2C(=O)NC3(CCCC3)C2=O)cc1 | 5.1 | -21 | -1.0 | -4 | 15 | 0.4 | 8% | -17
COC(=O)c1c(NC(=O)CN2C(=O)NC3(CCCCC3C)C2=O)sc2c1CCC2 (stereo not drawn) | . | -1.1 | 1.1 | 2 | . | -1.2 | -4% | .
O=C(NC1CC(=O)N(c2ccccc2)C1)C(=O)c1c[nH]c2ccccc12 (stereo not drawn) | 1.4 | -1.5 | -4.2 | . | 3 | 0.4 | 2% | -3
C=CCOc1ccc(/C=N/N2C(=O)C(CC(=O)Nc3ccc(F)cc3F)SC2=NC)cc1 (stereo not drawn) | -0.8 | -0.1 | -3.8 | 10 | -4 | -2.1 | -2% | 11
COc1ccc(C2CC(C(F)(F)F)n3nc(C(=O)O)cc3N2)cc1 (stereo not drawn) | -3.2 | 4.6 | -2.1 | -5 | -3 | -0.1 | 23% | -9
CS(=O)(=O)N(Cc1ccc(Cl)cc1)c1ccc(C(=O)NCCSc2ccccn2)cc1 | 1.7 | . | . | 5 | 1 | -0.5 | -3% | 15
O=C(CNC(=O)Cc1ccc(Cl)cc1)NCC(=O)N1CCCCC1 | -0.8 | -3.5 | -12 | 2 | 7 | -0.3 | . | -16
COc1ccc(Cl)cc1NC(=O)c1sc2nc(C)nc(N3CCOCC3)c2c1C | 1.8 | -4.0 | -3.2 | 24 | -7 | -2.3 | . | -1
CCOc1ccc(C(=O)NCC(=O)OCc2ccc(F)cc2Cl)cc1 | 4.9 | 0.6 | 5.9 | 2 | -7 | 0.6 | . | 3
CC(CCc1ccco1)N(C)S(=O)(=O)c1csc(C(N)=O)c1 (stereo not drawn) | 2.3 | 5.8 | -4.6 | 0 | -3 | 1.0 | . | -10
O=C(NC1CCCCC1)N(C1=NCCCCC1)c1ccc(Br)cc1 | 2.1 | . | 0.6 | -5 | -1 | -0.4 | 6% | -3
CCOC(=O)c1ccc(CC(=O)c2ccc(O)cc2O)o1 | 5.5 | . | -0.3 | 4 | 0 | -1.3 | 17% | 4
CC1CCC(NC(=O)c2nn(C)c3c2CS(=O)(=O)c2ccccc2-3)CC1 (stereo not drawn) | 4.1 | 3.6 | -1.4 | 1 | -2 | -0.5 | . | -11
COc1ccc(NC(=S)NCCCN2CCCC2)cc1Cl | 3.2 | -12 | -1.4 | -3 | -21 | 0.7 | 0% | -11
CC(O)C(O)C(O)C(O)/C=N/NC(=O)c1ccccc1 (stereo not drawn) | -2.4 | -0.6 | -10 | 1 | 10 | 0.9 | ? | -12
CCN(c1ccccc1)S(=O)(=O)c1cc(CN2C(=O)c3cccnc3C2=O)ccc1OC | 0.2 | -2.7 | -0.6 | -6 | -7 | -0.7 | . | 1
Cc1c(C(=O)c2ccccc2C(=O)O)sc2ccccc12 | 2.1 | -2.1 | -2.2 | -2 | -10 | ? | -20% | -10
CCC(=O)Nc1ccc2c(c1)nc(CCN1CCC(C)CC1)n2C | -2.4 | 0.2 | 2.1 | -5 | 5 | 1.2 | -7% | 1
CC1C(=O)Nc2ccccc2N1C(=O)C1CC1 (stereo not drawn) | -2.2 | . | 0.6 | -4 | -1 | 0.2 | 10% | -4
CSc1ccc(OCC(=O)Nc2ccc(N3CCOCC3)c(Cl)c2)cc1 | -1.4 | -1.6 | . | . | -2 | . | . | 8
COC(=O)c1cc(Cl)c(NC(=O)/C=C/c2ccc(OC)cc2)cc1OC | 2.3 | -0.6 | -3.7 | 8 | 2 | 0.8 | 4% | -86
Cc1cccc(-c2noc(CCCC(=O)Nc3ccc(C(N)=O)cc3)n2)c1 | -1.3 | . | 2.1 | -5 | 36 | -0.9 | 0% | 3
CC(C)(C)c1ccc(/C=C(\c2nc3ccccc3[nH]2)S(=O)(=O)c2ccccc2)cc1 | 0.0 | . | 5.3 | 108* | -2 | -0.4 | . | 56*
Cc1ccccc1S(=O)Cc1ccc(C(=O)NC2CCN(Cc3ccccc3)CC2)o1 (stereo not drawn) | 3.0 | 2.3 | 5.7 | 4 | 11 | 0.3 | 3% | 39
CCOC(=O)c1[nH]c2ccc(Br)cc2c1NC(=O)CCN1CCOCC1 | -0.2 | . | -4.4 | -2 | -4 | -0.4 | -7% | -3
CCc1nc(NCCO)c(C#N)c2c1CCCC2 | -1.5 | . | 3.1 | -7 | 10 | 0.4 | 5% | -15
CCOC(=O)CNc1nc(-c2ccncc2)nc2ccccc12 | . | . | -3.9 | 0 | . | 2.0 | 77% | .
COc1cccc(-n2c(C)c(C(C)=O)c(C(C)=O)c2C)c1 | -3.2 | . | 3.9 | -4 | -11 | -0.2 | 3% | -13
CCn1cc(C(=O)O)c(=O)c2cc(F)c(N3CCN(C(=S)NC(=O)c4c(OC)cccc4OC)CC3)cc21 | 1.1 | -1.1 | 2.2 | -6 | ? | -0.8 | . | -17
CNC(=S)NCCCc1ccccc1 | -2.6 | -2.1 | 4.0 | -12 | -5 | -0.7 | ? | -11
O=C(/C=C/N1CCOCC1)c1cc2ccccc2o1 | -0.5 | . | -8.8 | 1 | -2 | -1.9 | -4% | -10
FC(F)(F)c1cccc(Cc2noc(CN3CCC(c4ccncc4)CC3)n2)c1 | 2.0 | 2.8 | -3.8 | 31 | ? | 0.8 | 27% | 47
O=C(CC(=O)N/N=C/c1ccccc1O)NCc1cccnc1 | 5.7 | 1.6 | 0.9 | -8 | 5 | 1.2 | ? | -21
c1cncc(Oc2cccc(Oc3cccnc3)c2)c1 | . | . | 3.7 | -3 | . | -0.4 | 32% | .
O=C(/C=C/c1ccc2c(c1)OCO2)Nc1c(C(=O)O)[nH]c2ccccc12 | 2.8 | 4.4 | -1.5 | 2 | -3 | -0.5 | 22% | 5
Cc1ccc(C(=O)N/C(=C/c2ccc(-c3cccc([N+](=O)[O-])c3)o2)C(=O)NC(C)(C)C)cc1 | -3.6 | 3.5 | 2.2 | 13 | 32 | -0.2 | . | 16
O=C(Nc1cccc(C(F)(F)F)c1)Oc1ccccc1N1CCOCC1 | 5.5 | 2.6 | 0.4 | 1 | -1 | -0.2 | 4% | -19
Cc1ccc(NC(=S)NNC(=S)NC2CCCCC2)cc1 | 0.3 | -2.3 | -0.8 | 5 | 3 | 0.9 | 26% | -6
CC(C)Oc1cccc(C(=O)C2CCCN(Cc3cccn3-c3cccnc3)C2)c1 (stereo not drawn) | -5.3 | 12 | . | . | -27 | . | 0% | 53
O=C(Nc1ccc(N2CCOCC2)c(Cl)c1)c1cccnc1 | -2.0 | . | 2.2 | . | -2 | 0.8 | 4% | 1
COc1ccc(Cl)cc1-c1nc(-c2ccc(NC(=O)c3cccs3)cc2)no1 | ? | . | 3.5 | 34 | 38 | -0.7 | -8% | ?
Cc1onc(-c2ccccc2)c1C(=O)N1CCc2ccccc21 | -0.9 | 3.8 | -0.2 | -4 | 5 | 0.4 | 1% | -2
CCOc1cc(/C=C2\NC(=O)NC2=O)cc([N+](=O)[O-])c1O | -4.5 | -0.5 | 1.8 | -10 | 8 | 0.1 | -6% | -8
CN(C)CCCn1c(SCc2ccc(Cl)cc2)nnc1-c1ccncc1 | -1.4 | -1.5 | -5.9 | . | 2 | -0.9 | . | -14
